# Screening data (PubChem BioAssay)
# GALR2 ag – GALR2 receptor agonists, primary screen, cell-based. Galanin receptor type 2 (Homo sapiens), O43603. GALR2-expressing cells, agonist activation read-out. activation, %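 (tested at 5 µM)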. 140,000 tested, 0.48% active;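 active = above mean plus 3 SD of all compounds, about 5% in these data, not always enough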;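 also: 0% = vehicle buffer wells and 100% = reference agonist at full effect; tested in CHO reporter cells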
# Target sequence (O43603 whole entry, looked up): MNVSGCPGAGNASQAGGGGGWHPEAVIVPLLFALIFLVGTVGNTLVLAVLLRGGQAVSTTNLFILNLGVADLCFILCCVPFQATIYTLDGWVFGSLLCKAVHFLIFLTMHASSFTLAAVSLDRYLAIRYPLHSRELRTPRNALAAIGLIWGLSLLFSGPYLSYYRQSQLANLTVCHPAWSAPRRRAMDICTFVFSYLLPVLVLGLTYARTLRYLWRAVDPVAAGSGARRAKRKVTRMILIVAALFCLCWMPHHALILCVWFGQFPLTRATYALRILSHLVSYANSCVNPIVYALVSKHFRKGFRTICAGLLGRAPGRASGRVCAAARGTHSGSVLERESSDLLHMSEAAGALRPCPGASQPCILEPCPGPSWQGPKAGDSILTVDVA
# Insulin prom inh – inhibitors of insulin promoter-driven GFP, primary screen, imaging, TRM-6 cells (human fetal islet line), eGFP reporter, cell count | reporter expression induced with tamoxifen | inhibition, % at 2 µM | 130,000 tested, 0.9% active | AID 1273, 2008;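 active = inhibition above the mean plus 3 SD, with well images judged a real hit on visual review, cut at about 60% in these data, passing the limit was not always enough; inconclusive = inhibition over the cutoff but images rejected on review; inactive = inhibition not above the cutoff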
# RGS16-Gao – modulators of RGS16 binding to Galphao, primary screen, biochemical, human proteins, multiplexed bead flow cytometry; 220,000 tested, 0.38% active; bead-based flow cytometry RGS16-Galphao binding, fluorescence; actives lie on both sides; Regulator of G-protein signaling 16 (Homo sapiens) + Guanine nucleotide-binding protein …; binding response (% of control), % at 10 µM;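 active = below 25% or above 175%, edge rows of some plates excepted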;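 also: Galphao activated by GDP with aluminum fluoride before binding; 100% = wells without compound and 0% = beads without RGS; some results beyond the cut were filed as inactive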
# Target sequence (O15492 whole entry, looked up): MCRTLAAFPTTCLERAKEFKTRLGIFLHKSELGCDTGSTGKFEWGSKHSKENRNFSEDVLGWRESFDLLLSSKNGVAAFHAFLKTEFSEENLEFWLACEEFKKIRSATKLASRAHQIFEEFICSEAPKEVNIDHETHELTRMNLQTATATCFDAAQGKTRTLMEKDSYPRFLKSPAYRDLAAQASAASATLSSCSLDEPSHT
# Target sequence (P09471 whole entry, looked up): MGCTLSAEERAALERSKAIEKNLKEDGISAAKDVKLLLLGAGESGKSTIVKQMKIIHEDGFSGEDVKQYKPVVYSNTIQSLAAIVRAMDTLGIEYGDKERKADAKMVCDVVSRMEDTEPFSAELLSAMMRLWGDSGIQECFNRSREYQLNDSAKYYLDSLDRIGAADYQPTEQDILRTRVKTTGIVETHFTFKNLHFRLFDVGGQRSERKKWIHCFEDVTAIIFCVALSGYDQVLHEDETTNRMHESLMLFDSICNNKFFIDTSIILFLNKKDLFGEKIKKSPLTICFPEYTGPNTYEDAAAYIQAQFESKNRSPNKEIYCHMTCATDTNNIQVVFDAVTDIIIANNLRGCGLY
# PKD1 inh – inhibitors of human PKD1 kinase, biochemical, fluorescence polarization. PKD1 kinase fluorescence polarization assay. 200,000 tested, 0.056% active. inhibition, %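 (about 10 µM by stock and volumes)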. Serine/threonine-protein kinase D1 (Homo sapiens), Q15139;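 active = inhibition of 50% or more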;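 also: controls were vehicle for no effect and a reference inhibitor for full effect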
# HSV augment – enhancers of HSV replication in host cells, fold increase, host cell viability | HSV replication augmentation in cells | maximum fold increase | 220,000 tested, 0.005% active;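 active = peak rise of 1.5-fold or more in the series; inconclusive = self-fluorescent or not available for retest; tested in PC3 cells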;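 also: first round at 10 µM; read as green reporter fluorescence; hits show the peak of a series up to 25 µM; 1 = signal of infected wells without compound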
# Insulin prom inh cell count – second read-out of Insulin prom inh, no call of its own (marks repeat the call); normalized cell count, %; measured here: cell count, toxicity; reference of the scale not given here;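 cells exposed to compound for 48 h; stained nuclei by imaging scaled within each plate; lower means fewer cells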
# HSV augment primary fold – second read-out of HSV augment, no call of its own (marks repeat the call); fold increase; compound at 10 µM; measured here: primary screen fold increase 10 uM; tested in PC3 cells;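 GFP signal in the first replicate; 1 = infected wells without compound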
# * marks the source's active call; other numbers are inactive results; i = inactive; ? = inconclusive; . = not tested or not shown; & = joins results of further samples.
SMILES,GALR2 ag,Insulin prom inh,Insulin prom inh cell count,RGS16-Gao,PKD1 inh,HSV augment,HSV augment primary fold
COc1ccc(-n2c(O)c(C(C)=NCc3ccco3)c(=O)[nH]c2=O)cc1,-1.3,36,154,100,-3,i,1.2
O=C(c1cc(-c2cccnc2)nc2ccccc12)N1CCC2(CC1)OCCO2,-0.8,21,149,99,32,i,1.1
CN1CCN(c2c(F)cc([N+](=O)[O-])c(N)c2Br)CC1,.,.,.,103,-9,i,0.9
O=C(c1cc(-c2ccncc2)nc2ccccc12)N1CCC2(CC1)OCCO2,-1.6,-21,143,93,2,.,.
COc1ccc(N2C(=O)NC(=O)/C(=C\c3ccc([N+](=O)[O-])s3)C2=O)cc1,.,.,.,66,-3,?,.
Cc1ccccc1-n1c(C)nc2sccc2c1=O,-2.4,.,.,103,17,i,1
O=[N+]([O-])/C=C1\NCCN1Cc1ccc(Cl)nc1,-1.1,.,.,99&98,2&-6,i,0.91&1.1
CCN(CC)S(=O)(=O)N1CCC(C(=O)N2CCC3(CC2)OCCO3)CC1,.,.,.,104,-1,i,0.97
O=C(O)c1ccc(N=Cc2c(O)n(Cc3ccc(F)cc3)c(=O)[nH]c2=O)cc1,.,.,.,104,.,i,1.1
O=c1[nH]c(=O)n(Cc2ccccc2)c(O)c1/C=C1\C=Nc2ccccc21,.,-67,163,104,-5,i,1
CC(=O)Nc1ccccc1C(=O)OCc1ccc(C(=O)c2ccccc2)cc1,-1.7,-6,114,93,-2,i,0.7
CCn1ccnc1CN1CCCC(C(=O)c2cc(C)c(OC)c(C)c2)C1 (stereo not drawn),.,.,.,97,-10,i,0.93
COc1ccc(-c2cc(=NCCCCCC(=O)O)c3cc(C)ccc3o2)cc1,.,0,120,107,-6,i,0.94
Nc1ccc2c(c1)oc1ccccc12,-1.4,-3,155,91,-15,i,0.91
COc1ccc(-c2n(-c3ccccn3)c3ccccc3[n+]2-c2ccccn2)cc1,.,.,.,102,.,i,1
Cc1cc(Br)ccc1N1C(=O)CC(=O)NC1=O,-1.7,9,86,102,-9,i,1.1
CCCC[N+]1(C)[C@@H]2CC(OC(=O)[C@H](CO)c3ccccc3)C[C@H]1[C@@H]1O[C@@H]12 (stereo partly drawn),.,.,.,96,.,i,0.7
O=c1[nH]c(O)c(/C=C2\C=NN=C2c2ccccc2)c(=O)[nH]1,-4.5,7,144,84,-10,i,1.1
N#Cc1c(/N=C/C2C(=O)NC(=S)NC2=O)sc2c1CCCC2,.,-60,189,100,-5,?,.
COc1cc(CN2CCCC(C(=O)c3sccc3C)C2)cc(Cl)c1O (stereo not drawn),.,.,.,109,-12,i,0.9
CC(C(=O)Nc1ccc(Cl)cc1Cl)N1CC=C(c2ccccc2)CC1 (stereo not drawn),-0.8,-14,115,99,0,i,0.91
O=c1[nH]c(=O)n(-c2ccc(Cl)cc2)c(O)c1C=NCCN1CCCCC1,.,.,.,99,-2,i,0.87
CCCC(=O)N(C)C1=Nc2ccc(Cl)cc2C(c2ccccc2)=[N+]([O-])C1,.,.,.,105,.,i,0.92
CCCNC(=O)N1C2CCC1CC(O)(c1cccnc1)C2 (stereo not drawn),-3.8,.,.,97,-5,i,0.92
COc1ccc(C2CN(C)CC2C(=O)c2ccc(F)cc2)cc1Cl (stereo not drawn),.,-56,76,105,-10,i,0.87
O=C(CN1CC(c2ccccc2)CC1=O)Nc1cccc(F)c1 (stereo not drawn),-1.2,17,77,120,-3,.,.
Cc1cccc(C)c1OC(=O)Cc1ccccc1,.,35,118,103,-6,i,1.1
O=C(NCc1ccc(C(=O)N2CCC3(CC2)OCCO3)cc1)c1ccc2c(c1)OCO2,-0.6,.,.,101,6,i,0.99
Cc1ccc2c(c1)C1CN(C)CCC1N2C(=O)/C(C#N)=C/c1ccc2c(c1)OCO2 (stereo not drawn),.,0,102,103,3,i,1
Cc1ccc2c(CN3CC=C(c4ccccc4)CC3)cc(=O)oc2c1C,-0.5,-65,116,94,-1,i,0.95

# 2 of these compounds, reformatted.
# Order of values – GALR2 ag, Insulin prom inh, Insulin prom inh cell count, RGS16-Gao, PKD1 inh, HSV augment, HSV augment primary fold
O=c1[nH]c(=O)n(-c2ccc(Cl)cc2)c(O)c1C=NCCN1CCCCC1
 : ., ., ., 99, -2, i, 0.87
CCCC(=O)N(C)C1=Nc2ccc(Cl)cc2C(c2ccccc2)=[N+]([O-])C1
 : ., ., ., 105, ., i, 0.92

# Continuation.
SMILES,GALR2 ag,Insulin prom inh,Insulin prom inh cell count,RGS16-Gao,PKD1 inh,HSV augment,HSV augment primary fold
S=C1NC2(CCCCC2)NC12CCCCC2,.,.,.,136,.,i,1
O=c1c2ccccc2nc(-c2ccccc2)n1-c1ccccc1,.,.,.,100,.,i,0.9
Cc1ccc(-n2c(O)c(C=NC3CCCCC3N)c(=O)[nH]c2=O)cc1C (stereo not drawn),-1.4,.,.,89,3,i,0.96
CCOc1ccccc1OCC(=O)Nc1ccc(Cl)cc1C(=O)c1ccccc1,-1.4,-50,36,108,1,i,1.2
CCOP(=O)(OCC)C(O)c1ccc(N(C)C)cc1 (stereo not drawn),.,.,.,101,.,i,0.87
N#CC1(c2ccccc2)CCN(C2CC(=O)N(c3cccc(F)c3)C2=O)CC1 (stereo not drawn),.,.,.,100,4,i,1.2
O=C(Cc1ccccc1)OC(COCc1ccccc1)CN1CCOCC1 (stereo not drawn),-2.3,-217,114,85,-4,i,1
CC(C)N1OC2CC1c1nc3ccccc3n1C2 (stereo not drawn),.,.,.,101,.,i,0.82
CC(=O)Nc1ccc(OC(=O)N2CCCCC2)cc1,-1.1,.,.,101,-4,i,0.89
CN(C)C1=C(C#N)C(c2ccccc2)=NP(N(C)C)(N(C)C)=N1,-0.5,.,.,102,-10,i,0.83
O=c1[nH]c(=O)n(-c2ccccc2)c(O)c1/C=C/C=Nc1ccccc1,-0.8,9,128,101,-13,?,.
CCN1CCN(c2ccc(NC(C)=O)cc2Cl)CC1,.,.,.,101,-3,i,0.81
O/N=C1\CCC2CN(C3CCCCC3)CC2C1 (stereo not drawn),-1.0,-48,112,107,-13,i,1.1
CN1C(=O)C(=Cc2cc([N+](=O)[O-])ccc2N2CCCCC2)C(=O)N(C)C1=O,.,0,120,96,-6,i,0.83
CCSc1nnc([C@@H](N)Cc2c[nH]c3ccccc23)o1,-0.2,-12,116,97,-11,i,0.88
CS(=O)(=O)NNP(=O)(NNS(C)(=O)=O)NC(=O)c1ccc(Br)cc1,.,.,.,99,.,i,1
CC/C(=N\N1CCN(C)CC1)c1c(O)[nH]c(=O)[nH]c1=O,-1.2,39,77,120,3,i,1.2
Cc1cc(NC(=O)CCC(=O)N2CCC3(CC2)OCCO3)no1,-2.0,-3,64,99,4,i,0.96
O=C(CN1CCOCC1)c1ccc2cc[nH]c2c1,-2.1,.,.,181,4,i,0.88
CN(C)c1ccc(/C=C2/C(=N\O)C3CCN2CC3)cc1,.,.,.,100,.,i,0.82
COc1ccccc1NC1=NCCS1,-0.3,-107,108,97,-3,i,0.86
CCOC(=O)C(O)(c1cn(C)c2ccccc12)C(F)(F)F (stereo not drawn),-1.9,-11,68,103,7,i,0.89
O=c1c2ccccc2nc(Cc2cccc([N+](=O)[O-])c2)n1-c1ccc(O)cc1,.,.,.,96,.,i,0.96
Cc1ccc(S(=O)(=O)N2CCCCC2)cc1NC(=O)CN1CC=C(c2ccccc2)CC1,0.1,-16,90,332,0,i,1.1
CSCCC(N=Cc1c(O)n(-c2ccc(F)cc2)c(=O)[nH]c1=O)C(=O)OC(C)(C)C (stereo not drawn),-1.8,-22,39,95,-8,i,0.93
CC(C)CCn1c(N)c(C(=O)OCC2CCCO2)c2nc3ccccc3nc21 (stereo not drawn),2.6,.,.,101,3,i,0.75
CNCCc1c(C)n[nH]c1C,-1.6,.,.,102,0,i,0.97
O=[N+]([O-])c1ccc(N2CCNCC2)c(Cl)c1,.,.,.,101,-1,i,1.1
CN1CCN(S(=O)(=O)c2cnc(Cl)c(Br)c2)CC1,0.3,.,.,102,-5,i,1.1
O=c1[nH]c(=O)n(Cc2ccccc2)c(O)c1C=NCCN1CCOCC1,-1.3,.,.,112,7,i,0.81
C=CCn1c(=O)c(C=Nc2cccc([N+](=O)[O-])c2)c(O)n(CCCC)c1=O,-1.5,.,.,103,6,i,1.1
CC(C)(C)[C@]1(O)C[C@@H]2OC(=O)C[C@@]23C(=O)O[C@@H]2OC(=O)[C@H](O)[C@]213,-1.6,5,103,105,-15,i,0.99
CC(C)(C)n1cc(C(=O)c2ccccc2)cc1-c1ccccc1,.,.,.,104,.,i,1.1
O=c1[nH]c(=O)n(Cc2ccccc2Cl)c(O)c1/C=C1/C=CC=N1,.,.,.,96,-2,i,1
Cc1ccc(OP(=O)(NCc2ccccc2)Oc2ccc(C)cc2)cc1,0.1,.,.,99,-5,i,0.94
CC(C(O)c1ccccc1)N(C)CCn1cnc2c1c(=O)n(C)c(=O)n2C (stereo not drawn),.,-13,247,104,-7,i,0.97
CCCCNC(=S)N1CCn2cccc2C1c1cccnc1 (stereo not drawn),.,-41,143,102,-3,i,0.98
Cn1c(O)c(C=NCCN2CCN(C(=O)c3ccccc3)CC2)c(=O)n(C)c1=O,-0.2,.,.,102,-4,i,1
CC1CCN(CC(=O)c2ccc3c(c2)OCCO3)CC1,.,.,.,101,0,i,1
Cc1ccc(S(=O)(=O)CC(C)(O)C(=O)Nc2cccc(C(F)(F)F)c2)cc1 (stereo not drawn),-2.4,-212,125,103,12,i,1.1
O=c1c2ccccc2nc(/C=C/c2ccco2)n1-c1ccccc1O,.,.,.,101,.,i,0.83
CC(=NCc1ccco1)c1c(O)n(-c2ccc(Cl)cc2)c(=O)[nH]c1=O,.,.,.,104,.,i,0.99
CCOC(=O)C(NC(=O)CC)(Nc1ccc(C(O)(C(=O)OCC)C(F)(F)F)cc1C)C(F)(F)F (stereo not drawn),-1.9,.,.,98,-5,i,0.82
O=C(C[N+]12CCN(CC1)CC2)NCCc1ccc(Cl)cc1Cl,.,-35,117,102,-4,i,0.93
COc1ccc(CCNC(C)CCc2ccc(OC)cc2)cc1 (stereo not drawn),-1.6,-32,122,114,-2,i,0.75
CCCCn1c(NS(=O)(=O)c2ccc(C)cc2)c(C(=O)OCC)c2nc3ccccc3nc21,7.0*,-25,85,109,-2,i,0.98
C[N+]12CCC(CC1)C(C(O)(c1ccccc1)c1cccs1)C2 (stereo not drawn),-1.7,0,104,103,-6,i,1.3
O/N=C1/C(=C\c2ccccc2)N2CCC1CC2,-1.5,.,.,106,12,i,1
Cc1sc2ncn(CC(=O)NCC(=O)N3CCC4(CC3)OCCO4)c(=O)c2c1C,-1.9,.,.,113,-10,i,0.88
Cc1cc(OC(=O)CCCNC(=O)OC(C)(C)C)c2c3c(c(=O)oc2c1)CCC3,-1.4,-14,63,98,-13,i,1.3

# Part of the list above in order of heavy-atom count, rising.
SMILES,GALR2 ag,Insulin prom inh,Insulin prom inh cell count,RGS16-Gao,PKD1 inh,HSV augment,HSV augment primary fold
O/N=C1/C(=C\c2ccccc2)N2CCC1CC2,-1.5,.,.,106,12,i,1
Cc1sc2ncn(CC(=O)NCC(=O)N3CCC4(CC3)OCCO4)c(=O)c2c1C,-1.9,.,.,113,-10,i,0.88
CCOC(=O)C(NC(=O)CC)(Nc1ccc(C(O)(C(=O)OCC)C(F)(F)F)cc1C)C(F)(F)F (stereo not drawn),-1.9,.,.,98,-5,i,0.82

# The listing continues.
SMILES,GALR2 ag,Insulin prom inh,Insulin prom inh cell count,RGS16-Gao,PKD1 inh,HSV augment,HSV augment primary fold
O=P(CN1CCN(c2ccccc2)CC1)(N1CCCCC1)N1CCCCC1,0.9,.,.,103,-7,i,0.96
Cc1ccc(-n2c(O)c(C=Nc3ccc(S(=O)(=O)N(C)C)cc3)c(=O)[nH]c2=O)cc1,-2.3,-27,98,95,-8,i,1.1
CC(C)NCC(O)c1ccc(C2CCCC2)cc1 (stereo not drawn),0.0,-37,98,110,-7,i,0.75
CCCNc1nc(OC)nc(N2CC3CC(C2)c2cccc(=O)n2C3)n1 (stereo not drawn),.,7,132,101,-10,i,1.1
CCCCn1c(O)c(C(CC)=NCCCn2ccnc2)c(=O)[nH]c1=O,.,.,.,102,.,i,0.89
Cc1cc(Br)c(NC(=O)CN2CC=C(c3ccccc3)CC2)c(Br)c1,.,8,102,104,-2,i,1.1
CCC(CC)C1C(C#N)=C(N)Oc2c1c(=O)oc1ccccc21 (stereo not drawn),-1.2,72,152,99,-13,i,0.96
CCC(CO)(C(=O)OC1C[N+]2(C)CCC1CC2)c1ccccc1 (stereo not drawn),.,.,.,96,3,i,0.88

# Not all compounds are listed; the hit share may differ from the screen's.
